# Source: PubChem (Broad Institute)
# Yeast UUG start: modulators of yeast start codon fidelity, primary screen, whole organism, S. cerevisiae, single point, plate reader; S. cerevisiae UUG-firefly luciferase reporter, luminescence/redox ratio; activity score, % at 18.7 µM; 350,000 tested, 0.13% active; AID 602363, 2012;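 active = replicate mean at a twofold rise or more, about +100% in these data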;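 note: firefly luciferase made from a UUG start codon reports start codon fidelity; reporter light over untreated wells divided by growth signal over untreated wells; some hits fall short of that in this replicate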
# Env fusion inh: inhibitors of HIV-1 Env-driven cell-cell fusion, primary screen, HeLa-JRFL effector, CEM21 target cells, luciferase | 360,000 tested, 1.1% active | inhibition, % at 12.3 µM;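 active = mean replicate inhibition score of at least 50 and every replicate individually at or above 50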;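 note: 0% = plate neutral controls and 100% = maraviroc near 300 nM; one replicate is shown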
# * marks the source's active call; other numbers are inactive results; [ ] = another dose, or the depositor's remark.
No.	smiles	Env fusion inh	Yeast UUG start
1	C[C@H]1CN([C@@H](C)CO)C(=O)c2cc(NC(=O)Nc3ccccc3)ccc2O[C@@H]1CN(C)C(=O)Nc1ccc(C(F)(F)F)cc1	-1[16.7 µM]	9
2	COc1ccc([Si](C)(C)[C@@H]2[C@@H](CCO)O[C@]3(C(=O)N(Cc4ccc(NC(=O)[C@H](C)O)cc4)c4ccccc43)[C@H]2C)cc1	35[16.7 µM]	0
3	CO[C@@H]1CN(C)C(=O)c2ccc(NS(=O)(=O)c3c(C)noc3C)cc2OC[C@H](C)NC[C@@H]1C	-5[16.7 µM]	14
4	COc1ccc(NC(=O)N(C)C[C@H]2Oc3ccc(NC(=O)CCCCCC(=O)Nc4ccccc4N)cc3CC(=O)N([C@@H](C)CO)C[C@@H]2C)cc1	-3[16.7 µM]	26
5	CCCC(O)C#Cc1cnc2c(c1)C(=O)N([C@H](C)CO)C[C@H](C)[C@H](CN(C)S(=O)(=O)c1ccc(F)cc1)O2 (stereo partly specified)	1[16.7 µM]	4
6	C[C@@H]1CN([C@H](C)CO)S(=O)(=O)c2ccc(C3=CCCCC3)cc2O[C@H]1CN(C)S(C)(=O)=O	32[16.7 µM]	11
7	C[C@@H]1CN([C@H](C)CO)C(=O)c2cccc(N(C)C)c2O[C@@H]1CN(C)Cc1ccc2c(c1)OCO2	-6[16.7 µM]	-1
8	CCCNC(=O)C[C@H]1C[C@@H]2c3cc(NC(=O)NC4CCCC4)ccc3O[C@@H]2[C@@H](CO)O1	-13[16.7 µM]	1
9	C[C@@H]1CCCCO[C@H](CN(C)S(C)(=O)=O)[C@H](C)CN([C@@H](C)CO)C(=O)c2cc(NC(=O)C3CCCCC3)ccc2O1	-27[16.7 µM]	-7
10	Cc1noc(C)c1S(=O)(=O)Nc1cccc2c1O[C@@H](CN(C)S(=O)(=O)c1ccccc1)[C@@H](C)CN([C@H](C)CO)C2=O	18[16.7 µM]	-6

# Going on with the list.
No.	smiles	Env fusion inh	Yeast UUG start
11	O=S(=O)(Cc1ccccc1)NCC[C@@H]1CC[C@H](NS(=O)(=O)c2ccccc2)[C@H](CO)O1	13[16.7 µM]	0
12	C[C@H]1CN([C@@H](C)CO)S(=O)(=O)c2ccc(C#CCC3CCCC3)cc2O[C@H]1CN(C)C(=O)c1cnccn1	18[16.7 µM]	10
13	CCCN(C)C[C@@H]1Oc2cc(-c3ccccc3OC)ccc2S(=O)(=O)N([C@@H](C)CO)C[C@@H]1C	-8[16.7 µM]	1
14	O=C(O)C[C@@H]1C=C[C@H](NC(=O)Nc2ccccc2)[C@H](CO)O1	58*[16.7 µM]	-10
15	COc1ccc(CN(C)C[C@@H]2Oc3c(NC(=O)Nc4ccc(OC)cc4)cccc3C(=O)N([C@@H](C)CO)C[C@H]2C)cc1	0[16.7 µM]	7
16	C[C@@H]1CN([C@H](C)CO)C(=O)c2cc(C3=CCCC3)cnc2O[C@H]1CN(C)Cc1cccc(F)c1	-25[16.7 µM]	19
17	C[C@@H]1CN([C@H](C)CO)C(=O)c2cc(NC(=O)CCC(F)(F)F)ccc2O[C@H]1CN(C)C(=O)Nc1cccc2ccccc12	13[16.7 µM]	-3
18	C[C@H]1CCCCO[C@@H](CN(C)C(=O)CCC(F)(F)F)[C@@H](C)CN([C@@H](C)CO)C(=O)c2cc(NS(=O)(=O)c3cn(C)cn3)ccc2O1	-12[16.7 µM]	-14
19	C[C@@H]1CN([C@@H](C)CO)C(=O)c2cc(NS(=O)(=O)c3ccc(Cl)cc3)ccc2O[C@@H](C)CCCCO[C@@H]1CN(C)C(=O)Nc1ccc(C(F)(F)F)cc1	10[16.7 µM]	4
20	CCC(=O)N(C)C[C@H]1Oc2cc(C#Cc3ccccc3)ccc2S(=O)(=O)N([C@@H](C)CO)C[C@H]1C	3[16.7 µM]	6

# (cont.)
No.	smiles	Env fusion inh	Yeast UUG start
21	CC(C)NC(=O)N(C)C[C@H]1Oc2cc(C#CC(C)(C)O)ccc2S(=O)(=O)N([C@H](C)CO)C[C@H]1C	6[16.7 µM]	-5
22	Cc1ccc(S(=O)(=O)N(C)C[C@H]2Oc3ccc(NC(=O)Cc4ccccc4)cc3CC(=O)N([C@@H](C)CO)C[C@H]2C)cc1	10[16.7 µM]	-9
23	C[C@@H]1CCCCO[C@@H](CN(C)C(=O)c2ccncc2)[C@@H](C)CN([C@H](C)CO)C(=O)c2cc(NS(=O)(=O)c3ccc(F)cc3)ccc2O1	0[16.7 µM]	-2
24	C[C@@H]1CCCCO[C@H](CN(C)Cc2ccc(C(F)(F)F)cc2)[C@@H](C)CN([C@@H](C)CO)C(=O)c2cc(NC(=O)Cc3ccccc3)ccc2O1	42[16.7 µM]	3
25	Cc1noc(C)c1NC(=O)Nc1ccc2c(c1)C(=O)N([C@@H](C)CO)C[C@@H](C)[C@H](CN(C)C(=O)Nc1ccc(F)cc1)OCCCC[C@H](C)O2	-4[16.7 µM]	35
26	C[C@@H]1CN([C@@H](C)CO)C(=O)Cc2cc(NS(=O)(=O)c3cn(C)cn3)ccc2O[C@H]1CN(C)S(=O)(=O)c1ccccc1	-9[16.7 µM]	4
27	COCC#Cc1ccc2c(c1)O[C@H](CN(C)S(=O)(=O)c1cccc(F)c1)[C@H](C)CN([C@H](C)CO)S2(=O)=O	6[16.7 µM]	-2
28	Cc1noc(C)c1NC(=O)N(C)C[C@H]1Oc2ccc(NC(=O)C3CC3)cc2CC(=O)N([C@@H](C)CO)C[C@H]1C	-32[16.7 µM]	18
29	C[C@H]1CN([C@@H](C)CO)C(=O)c2cc(NC(=O)Nc3ccc(C(F)(F)F)cc3)ccc2O[C@H]1CN(C)Cc1ccc(-c2ccccc2)cc1	10[16.7 µM]	5
30	C[C@@H]1CN([C@@H](C)CO)S(=O)(=O)c2ccc(-c3cccc(C#N)c3)cc2O[C@@H]1CN(C)C	15[16.7 µM]	-5

# Going on with the list:
No.	smiles	Env fusion inh	Yeast UUG start
31	CCCNC(=O)N(C)C[C@@H]1Oc2ncc(/C=C/c3ccccc3)cc2C(=O)N([C@@H](C)CO)C[C@@H]1C	-6[16.7 µM]	6
32	COCC#Cc1cnc2c(c1)C(=O)N([C@H](C)CO)C[C@H](C)[C@@H](CN(C)C(=O)c1cnccn1)O2	-19[16.7 µM]	-2
33	C[C@H]1CN([C@@H](C)CO)S(=O)(=O)c2ccc(-c3ccc(C#N)cc3)cc2O[C@H]1CN(C)Cc1ccccn1	-4[16.7 µM]	-4
34	CO[C@@H]1CN(C)C(=O)c2ccc(NC(=O)C3CCC3)cc2OC[C@@H](C)N(C(=O)NC(C)C)C[C@H]1C	30[16.7 µM]	-1
35	O=C(C[C@@H]1C=C[C@H](NC(=O)c2ccccc2)[C@H](CO)O1)NCc1ccncn1	-6[16.7 µM]	2
36	COc1ccc(NC(=O)N(C)C[C@@H]2OCCCC[C@@H](C)Oc3ccc(NC(=O)NC4CCCCC4)cc3C(=O)N([C@H](C)CO)C[C@H]2C)cc1	-11[16.7 µM]	-4
37	O=C(C[C@H]1C=C[C@@H](NC(=O)C2CCOCC2)[C@H](CO)O1)NCC1CCCCC1	-10[16.7 µM]	-20
38	C[C@@H]1CN([C@H](C)CO)C(=O)c2cc(NC(=O)Nc3ccc4c(c3)OCO4)ccc2O[C@@H]1CN(C)S(=O)(=O)c1cn(C)cn1	1[16.7 µM]	-5
39	C[C@@H]1CN([C@@H](C)CO)S(=O)(=O)c2ccc(C#Cc3ccncc3)cc2O[C@H]1CN(C)C(=O)C1CCCCC1	-1[16.7 µM]	5
40	C[C@@H]1CCCCO[C@H](CN(C)C(=O)Nc2ccc3c(c2)OCO3)[C@@H](C)CN([C@@H](C)CO)C(=O)c2cc(NS(=O)(=O)c3ccccc3)ccc2O1	-22[16.7 µM]	8

# Remaining list, next part:
No.	smiles	Env fusion inh	Yeast UUG start
41	Cc1noc(C)c1NC(=O)Nc1ccc2c(c1)C(=O)N([C@@H](C)CO)C[C@H](C)[C@H](CN(C)Cc1ccc(C(F)(F)F)cc1)OCCCC[C@@H](C)O2	-48[16.7 µM]	12
42	C[C@H](CO)N1C[C@H](C)[C@H](CN(C)C(=O)Nc2ccccc2)Oc2cc(C#CC3(O)CCCC3)ccc2S1(=O)=O	-3[16.7 µM]	3
43	C[C@@H]1CN([C@H](C)CO)C(=O)c2cc(NC(=O)Nc3ccc4c(c3)OCO4)ccc2O[C@@H](C)CCCCO[C@H]1CN(C)Cc1ccccc1	-6[16.7 µM]	-11
44	CC(C)CC#Cc1ccc2c(c1)O[C@@H](CN(C)Cc1cccc(F)c1)[C@@H](C)CN([C@@H](C)CO)S2(=O)=O	5[16.7 µM]	15
45	Cc1noc(C)c1S(=O)(=O)Nc1ccc2c(c1)C(=O)N([C@@H](C)CO)C[C@H](C)[C@@H](CN(C)S(=O)(=O)c1cccs1)O2	24[16.7 µM]	19
46	C[C@@H]1CN([C@@H](C)CO)C(=O)c2cc(C#Cc3ccc(F)cc3)cnc2O[C@@H]1CN(C)CC1CCOCC1	-3[16.7 µM]	14
47	C[C@H](CO)N1C[C@H](C)[C@@H](CN(C)C(=O)Nc2cccc3ccccc23)Oc2ccc(NC(=O)Nc3ccccc3)cc2CC1=O	4[16.7 µM]	-8
48	COCC(=O)N(C)C[C@@H]1Oc2ncc(-c3cccc(OC)c3)cc2C(=O)N([C@@H](C)CO)C[C@H]1C	1[16.7 µM]	0
49	CC(C)NC(=O)N[C@@H]1C=C[C@@H](CC(=O)NCc2ccc(Oc3ccccc3)cc2)O[C@H]1CO	0[16.7 µM]	-14
50	Cc1ccc(-c2cnc3c(c2)C(=O)N([C@H](C)CO)C[C@@H](C)[C@H](CN(C)Cc2ccccc2C(=O)O)O3)cc1	-7[16.7 µM]	8

# Going on with the list:
No.	smiles	Env fusion inh	Yeast UUG start
51	O=C(Cc1ccccn1)NCC[C@@H]1CC[C@H](NC(=O)Nc2ccc(C(F)(F)F)cc2)[C@@H](CO)O1	6[16.7 µM]	-1
52	C[C@@H]1CN([C@@H](C)CO)C(=O)c2cccc(NS(=O)(=O)c3ccccc3)c2O[C@H]1CN(C)S(=O)(=O)c1cn(C)cn1	14[16.7 µM]	-9
53	C[C@@H]1CN([C@H](C)CO)C(=O)c2cccc(NC(=O)Nc3ccc(F)cc3)c2O[C@H]1CN(C)S(=O)(=O)c1ccccc1	14[16.7 µM]	0
54	CC(=O)N(C)C[C@@H]1Oc2ncc(C3=CCCC3)cc2C(=O)N([C@@H](C)CO)C[C@@H]1C	-4[16.7 µM]	-1
55	COc1ccc(NC(=O)Nc2cccc3c2O[C@@H](CN(C)S(=O)(=O)c2ccc(Cl)cc2)[C@@H](C)CN([C@H](C)CO)C3=O)cc1	-9[16.7 µM]	-7
56	O=C1CCC[C@@H]2c3[nH]c4ccccc4c3CCN12	-10[16.7 µM]	-13
57	N#C[C@H]1[C@H](c2ccc(-c3ccccc3F)cc2)[C@@H](CO)N1C(=O)C1CC1	-5[16.7 µM]	-5
58	C[C@H](CO)N1C[C@H](C)[C@H](CN(C)Cc2ccc(Cl)c(Cl)c2)Oc2ccc(NC(=O)CCCN(C)C)cc2C1=O	-12[16.7 µM]	3
59	Cc1ccc(S(=O)(=O)N[C@H]2CC[C@@H](CCn3cc(C4(O)CCCC4)nn3)O[C@H]2CO)cc1	-8[16.7 µM]	-27
60	CNC[C@H]1Oc2c(NC(=O)Nc3c(C)noc3C)cccc2C(=O)N([C@@H](C)CO)C[C@H]1C	6[16.7 µM]	6

# Next section
No.	smiles	Env fusion inh	Yeast UUG start
61	C[C@@H]1CN([C@@H](C)CO)C(=O)c2cc(-c3ccncc3)cnc2O[C@@H]1CN(C)C(=O)NC1CCCC1	2[16.7 µM]	-7
62	C[C@@H]1CN([C@@H](C)CO)C(=O)c2cc(C#CCN(C)C)cnc2O[C@H]1CN(C)C	-6[16.7 µM]	15
63	CNC(=O)C[C@@H]1CC[C@@H]2[C@H](COc3ccc(NC(=O)c4ccccc4OC)cc3C(=O)N2C)O1	-25[16.7 µM]	11
64	C[C@H]1CN([C@@H](C)CO)S(=O)(=O)c2ccc(C#Cc3ccccc3)cc2O[C@@H]1CN(C)C	17[16.7 µM]	-3
65	CC(C)NC(=O)Nc1ccc2c(c1)CC(=O)N([C@H](C)CO)C[C@H](C)[C@@H](CN(C)S(=O)(=O)c1cn(C)cn1)O2	16[16.7 µM]	-8
66	C[C@H]1CN([C@@H](C)CO)C(=O)c2cc(NC(=O)C3CC3)ccc2O[C@@H]1CN(C)Cc1ccc(Oc2ccccc2)cc1	-5[16.7 µM]	-9

# This is a subset; rates above refer to the full screens.
